ClpP mod = qHTS Assay for Activators of ClpP. ATP-dependent Clp protease proteolytic subunit (Bacillus subtilis (strain 168)), P80244. purified B. subtilis ClpP, FRET peptide cleavage, 20 min. Potency, µM (titrated, usually from 57.5 µM), without a hit: at the highest dose activity change, negative = active. 1.9% of 340,000 active. AID 651965, 2013; active = well fitted falling curve with a large enough effect; inconclusive = small, poorly fitted or top-dose-only effect; inactive = no such curve, though single readings can be large or run the other way; further: potency means the concentration at half of the fitted maximal effect; the source files actives as falling curves though it sought activators and does not explain the sign; nearly all actives have a fitted effect of over 65% in size; many hits overshoot -100%
Target sequence (P80244 whole entry, looked up): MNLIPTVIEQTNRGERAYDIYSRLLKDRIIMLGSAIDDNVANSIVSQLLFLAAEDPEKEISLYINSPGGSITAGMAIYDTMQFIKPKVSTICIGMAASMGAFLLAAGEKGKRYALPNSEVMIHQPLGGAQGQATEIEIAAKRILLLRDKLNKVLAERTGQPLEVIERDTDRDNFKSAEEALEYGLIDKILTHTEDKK
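Purified B. subtilis ClpP, 10 microg/mL final in Tris/HCl pH8 with KCl, BSA, glycerol and Tween-20, cleaved an Abz/nitrotyrosine-quenched decapeptide. Fluorescence (ex 320, em 430) was read at 0 and 20 min at room temperature. Delta was normalized to 5.8 microM ADEP and DMSO/no-enzyme controls.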
gsp ag = qHTS for Agonist of gsp, the Etiologic Mutation Responsible for Fibrous Dysplasia/McCune-Albright Syndrome: qHTS | Potency, µM (top dose mostly 76.9 µM), without a hit: at the top dose activation (cAMP increase), actives largely listed as activators | gsp mutant cells, cAMP HTRF, 30 min; control for the full effect not named in the record | 0.13% of 340,000 active; active = well fitted activation curve with a large enough effect; inconclusive = small, poorly fitted or top-dose-only effect, or another doubt; inactive = no such curve, though single readings can be large or run the other way; cell line not stated here;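 further: phosphodiesterase inhibitor Ro 20-1724 added with compounds to block cAMP breakdown; potency means the concentration at half of the fitted maximal effect; nearly all actives have a fitted effect of over 60% in size; about a fifth of the inactives were tested at one dose only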
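Cells in DMEM/10% FBS with G418 were pretreated with compounds in DMSO plus […] (300 uM stock) for 30 min at 37C. cAMP was measured by HTRF (cAMP-d2 plus anti-cAMP antibody-K) after 30 min at room temperature.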
gsp antagonist = qHTS for Antagonists of gsp, the Etiologic Mutation Responsible for Fibrous Dysplasia/McCune-Albright Syndrome: qHTS; gsp-mutant cells, cAMP HTRF, 30 min; control for the full effect not named in the record; Potency, µM (series often up to 76.9 µM), for inactives: at the top dose activity change, negative = inhibition, actives largely listed as inhibitors; 0.4% of 340,000 active; AID 624288, 2012; active = falling curve of any shape with a large fitted effect; inconclusive = falling curve, mostly with a smaller effect; inactive = flat or rising curve; cell line not stated here;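 further: intracellular cAMP measured with PDE inhibitor Ro 20-1724 present during compound exposure; potency means the concentration at half of the fitted maximal effect; on the % scale 0 is the no-effect control and ±100 the full control effect; nearly all actives have a fitted effect of over 65% in size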
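Cells in G418 medium, seeded 16-24 h, 37C; buffer exchange to DPBS + 1 mM CaCl2, 0.5 mM MgCl2, 0.05% BSA; cpds in DMSO + […] (300 uM stock), 30 min 37C; HTRF cAMP detection.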
D2 agonist = Beta-Arrestin HTS for Positive Allosteric Modulators of the Human D2 Dopamine Receptor: Agonists | 0.084% of 360,000 active | activation, % (no concentration beside the values) | AID 624465, 2012 | DiscoveRx PathHunter D2 beta-arrestin, luminescence, 90 min; 100% = 57 uM dopamine signal; in the data active = activation above about 40%; inconclusive = about 15% to 40%; inactive = below about 15%; further: compound concentration not given in the record; the text of the record calls up to 30% inactive
Target sequence (P14416 whole entry, looked up): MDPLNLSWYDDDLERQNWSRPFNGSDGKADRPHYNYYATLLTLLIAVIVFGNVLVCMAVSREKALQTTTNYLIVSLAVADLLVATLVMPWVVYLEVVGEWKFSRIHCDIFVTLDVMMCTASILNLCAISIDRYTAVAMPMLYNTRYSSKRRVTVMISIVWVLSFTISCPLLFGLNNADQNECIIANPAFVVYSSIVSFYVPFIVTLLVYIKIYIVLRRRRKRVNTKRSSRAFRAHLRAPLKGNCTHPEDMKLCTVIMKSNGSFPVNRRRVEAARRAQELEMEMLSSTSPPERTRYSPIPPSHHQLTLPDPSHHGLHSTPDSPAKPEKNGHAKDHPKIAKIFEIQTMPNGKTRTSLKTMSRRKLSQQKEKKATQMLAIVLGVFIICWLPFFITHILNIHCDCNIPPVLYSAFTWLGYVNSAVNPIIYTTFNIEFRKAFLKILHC
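DiscoveRx PathHunter D2 beta-arrestin cells (2,100/well) attached overnight, then compound-stimulated 90 min at 37 C in HBSS/10 mM HEPES/0.1% Tween-20 buffer; beta-galactosidase complementation read by luminescence after 1 h at ambient temperature. Dopamine 57 uM final (EC100) as control.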
Menin-MLL FL inh = qHTS Assay for Inhibitors Targeting the Menin-MLL Interaction in MLL Related Leukemias: Competition With Fluorescein Labeled MLL-derived Peptide; FP activity change, % at 61.4 µM; AID 1766, 2009; Fluorescence polarization, fluorescein-MLL peptide displacement from menin; 290,000 tested, under 10 active; inconclusive = falling polarisation curve, or a change in total fluorescence; inactive = total fluorescence flat and polarisation flat or rising; no compound was filed as active; the % refers to the polarisation; negative = inhibition;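 further: % of control where 0% means no effect; inhibitors lower the polarisation; unlabelled MLL peptide was the positive control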
PINK1 expr mod = A Quantitative High throughput Screen to Identify Chemical Modulators of PINK1 Expression. PINK1 immunofluorescence, high-content cytometry, 24 h. Potency, µM (series often up to 76.6 µM), for inactives: top-dose activation (PINK1 increase), hits mostly activators. 0.2% of 410,000 active; active = well fitted activation curve with a large enough effect; inconclusive = small, poorly fitted or top-dose-only effect; inactive = flat fitted curve, though single readings scatter; cell line not stated here;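 further: potency means the concentration at half of the fitted maximal effect; % of control where 0% means no effect; nearly all actives have a fitted effect of over 65% in size; a mitochondrial uncoupler was the plate control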
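Readout is PINK1 immunofluorescence, quantified alongside mitochondrial, cell and nuclear markers by laser-scanning microplate cytometry. Cells from a stable line were exposed to compound titrations (5 concentrations) for 24 hours, with CCCP controls.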
Sfp PPTase inh = qHTS Assay for Inhibitors of Bacillus subtilis Sfp phosphopantetheinyl transferase (PPTase). 4'-phosphopantetheinyl transferase ffp (Bacillus subtilis), Q9F4F7. Biochemical Sfp PPTase activity, qHTS. Potency, µM, inactives show max response, negative = inhibition, actives largely listed as inhibitors. 3.5% of 310,000 active. AID 1490, 2009; active means well fitted inhibition curve with a large enough effect; inconclusive means small, poorly fitted or top-dose-only effect, or another doubt; inactive means no such curve, though single readings can be large or run the other way;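 further: the enzyme is Sfp with the accession as filed and its product quenches rhodamine fluorescence; potency means the concentration at half of the fitted maximal effect; 0% = enzyme reaction without inhibitor and -100% = no enzyme wells; top concentration of the series not given in the record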
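Fluorescence-quenching assay with 15 nM Sfp, 5 uM rhodamine-CoA and 12.5 uM BHQ-2-labelled ybbR peptide in pH 7.6 Hepes/MgCl2 buffer. Enzyme was pre-incubated with compound for 15 min at room temperature. Rate was taken from the 30-min fluorescence change (525/598 nm).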
Starred values were filed as active, the others as inactive; ? = inconclusive; . = no result given; [ ] = another dose, or the depositor's remark.

Assay codes: A = ClpP mod; B = gsp ag; C = gsp antagonist; D = D2 agonist; E = Menin-MLL FL inh; F = PINK1 expr mod; G = Sfp PPTase inh
1: CC1CC(C)CN(c2ncc3c(n2)CC(c2ccccc2)CC3=O)C1 (centres undefined)
  A = -10.6% | B = -8.4% | C = -5.2% | D = -3.5 | E = 1.2 | F = 2.6% | G = 11.1%
2: CCc1ccc(-c2csc(NC(=O)C3CCCO3)c2C(=O)OC(C)C)cc1 (centres undefined)
  A = -28.2% | B = 0.1% | C = -8.6% | D = -1.8 | E = 4.6 | F = 4.0% | G = -2.2%
3: O=C1OC(Sc2ccccc2)(c2ccccc2)c2ccccc21 (centres undefined)
  A = 1.4% | B = -12.1%[15.4 µM] | C = -13.3% | D = -1.1 | E = . | F = 5.9% | G = .
4: COc1ccc(-n2c(SCC#N)nc3c(sc(=S)n3-c3ccccc3)c2=O)c(OC)c1
  A = -3.2% | B = 3.3% | C = -12.7% | D = -2.2 | E = -15.6 | F = 0.1% | G = 14.1µM*
5: Cc1noc(C)c1COc1ccc(C(=O)NCc2ccccn2)cc1
  A = -1.2% | B = -16.9% | C = -11.1% | D = 1.1 | E = -1.1 | F = 0.5% | G = 14.9%
6: Cc1cc(Cl)ccc1OC(C)C(=O)NN1C(=O)c2ccccc2C1=O (centres undefined)
  A = . | B = -8.2%[15.4 µM] | C = -10.2% | D = 1.4 | E = -23.6 | F = 1.1% | G = 26.1%
7: CN(Cc1ccccc1)C(=O)c1cc2cc(F)ccc2[nH]1
  A = . | B = ? | C = 3.1% | D = -1.3 | E = -1.9 | F = 2.6% | G = 8.7%
8: O=C(Cc1cc(=O)oc2cc(O)ccc12)N[C@@H](Cc1c[nH]c2ccccc12)C(=O)O
  A = . | B = 10.6% | C = 5.9% | D = -6.8 | E = 0.6 | F = 4.3% | G = 11.0%
9: O=C(N/N=C/c1ccc(Br)cc1)c1ccc(F)cc1
  A = -2.4% | B = -1.3% | C = 1.6% | D = -0.5 | E = 2.0 | F = 0.1% | G = ?
10: Cc1c(N=C2N=C(NC(=O)NC(C)(C)C)c3ccccc32)c(=O)n(-c2ccccc2)n1C
  A = 0.6% | B = 1.4% | C = -24.5% | D = -6.9 | E = -0.9 | F = 7.3% | G = -3.2%
11: O=C(Nc1ccc(NC(=O)c2cccs2)cc1)c1ccc2c(c1)OCO2
  A = . | B = -4.3%[15.4 µM] | C = 4.7% | D = -3.8 | E = 3.5 | F = ? | G = 9.2%
12: COc1ccc(OC)c(N2C(=O)CCCC2=O)c1
  A = -3.1% | B = 7.4%[15.4 µM] | C = -2.1% | D = 1.1 | E = 0.8 | F = 0.4% | G = -0.9%
13: N#CCCN(Cc1ccccc1)C(=S)NC(=O)c1ccccc1
  A = -0.7% | B = -30.5% | C = -3.5% | D = -1.1 | E = 5.4 | F = ? | G = -26.7%
14: COc1cc(/C=N\NC(=O)C(C)(C)O)ccc1OC/C=C/c1ccccc1
  A = -22.3% | B = ? | C = -2.9% | D = -0.9 | E = -0.8 | F = 2.0% | G = -5.7%
15: C=CCn1c(=O)c(C(=O)Nc2ccc(C)cc2)c(O)c2ccccc21
  A = 1.4% | B = -3.1% | C = 5.7% | D = -0.4 | E = -0.5 | F = 3.7% | G = -9.3%
16: CCOc1ccc(NC(=O)CSc2nnc(-c3cc(C)[nH]n3)n2N)cc1
  A = -0.2% | B = -46.4%[inhibitor] | C = 8.4% | D = -2.3 | E = . | F = 1.4% | G = 4.9%
17: COc1ccc(N2CCN(C(=O)Nc3ccc(S(=O)(=O)N(C)C)cc3)CC2)cc1
  A = 24.1% | B = 19.3% | C = -14.7% | D = -3.7 | E = 3.1 | F = -0.9% | G = 2.5%
18: Cc1ccc(/C=N/Nc2cccc3cccnc23)c(O)c1
  A = -2.4% | B = -44.2% | C = -11.9% | D = 2.0 | E = 1.7 | F = 2.1%[38.3 µM] | G = 44.7µM*
19: CC1(c2ccccc2Cl)NC(=O)N(CC(=O)N2c3ccccc3NC(=O)C2(C)C)C1=O (centres undefined)
  A = -2.9% | B = -41.4%[inhibitor] | C = 1.7% | D = -1.3 | E = . | F = -1.5% | G = .
20: CC(C)c1ccc2c(c1)C(c1cccs1)=NNC(c1ccncc1)=N2
  A = 2.7% | B = -21.6% | C = 1.1% | D = -4.5 | E = -1.5 | F = 2.1% | G = -1.2%
21: Fc1ccc2cnc(-c3ccccc3F)cc2c1
  A = -6.8% | B = . | C = -6.8% | D = 2.1 | E = . | F = 5.3% | G = .
22: Cc1cccc(C(=O)OCC(=O)N2CCCC2=O)c1O
  A = -6.5% | B = -4.0% | C = 13.3% | D = 0.6 | E = . | F = -0.2% | G = .
23: Cc1ccc(C)c(N(CC(=O)NC2CCCC2)C(=O)CCC(=O)Nc2cc(C)on2)c1
  A = . | B = 7.5%[15.4 µM] | C = -1.3% | D = -0.5 | E = . | F = 0.6% | G = 16.3%
24: COc1cccc(NC(=O)CCCn2nc(C)c3c(C)n(-c4ccccc4)nc3c2=O)c1
  A = -2.0% | B = ? | C = -13.8% | D = 0.1 | E = . | F = 2.2% | G = 5.3%
25: CCN(CC1CCCN(CCc2cccc(OC)c2)C1)C(=O)C=C(C)C (centres undefined)
  A = 0.5% | B = 2.0% | C = 6.3% | D = -3.2 | E = 2.5 | F = 1.6% | G = 29.0%
26: CCn1c(CNC(C)=O)nnc1SCC(=O)c1ccc(Br)cc1
  A = -4.0% | B = -6.1% | C = 17.1% | D = -0.2 | E = -3.5 | F = 0.5%[38.3 µM] | G = ?
27: COc1cc(Cl)ccc1OCc1cc(C(=O)N2CCCCC2c2cccnc2)no1 (centres undefined)
  A = 0.6% | B = ? | C = 9.2% | D = -5.9 | E = -10.9 | F = 2.4% | G = 1.3%
28: C=C(C)CN(CC)C(=O)COc1ccc(S(=O)(=O)Nc2ccc(OC)cc2)cc1
  A = 0.2% | B = -54.3%[inhibitor] | C = -30.2% | D = -5.1 | E = -2.6 | F = -3.6% | G = -5.9%
29: COc1ccc2oc(=O)cc(CN3CCN(Cc4ccc(OC)c(OC)c4OC)CC3)c2c1
  A = -11.3% | B = -80.9%[inhibitor] | C = -1.4% | D = -4.6 | E = 16.3 | F = -1.5% | G = 0.7%
30: O=C(NCc1cccc(Cl)c1)c1cc(COc2ccc3ncccc3c2)on1
  A = . | B = -2.8%[15.4 µM] | C = 35.5µM* | D = -1.2 | E = 5.0 | F = -1.5% | G = -4.0%
31: CCCCc1nc2c(C)c(N)cnc2n1Cc1cccc([N+](=O)[O-])c1
  A = . | B = ? | C = 5.4% | D = 3.9 | E = 1.0 | F = 4.2% | G = -1.0%
32: C=CCN=C1NN=C(c2cc(C)n(CCOC)c2C)CS1
  A = 1.0% | B = -24.5% | C = 15.0% | D = -8.8 | E = ? | F = 2.4% | G = 39.8µM*
33: CCOc1ccccc1N1CCN(C2=C(NS(=O)(=O)c3cccs3)C(=O)c3ccccc3C2=O)CC1
  A = 2.1% | B = -0.1% | C = -9.3% | D = -3.4 | E = 2.2 | F = 5.5% | G = ?

Exported screen by screen: ten of the compounds above
[21] Fc1ccc2cnc(-c3ccccc3F)cc2c1
[22] Cc1cccc(C(=O)OCC(=O)N2CCCC2=O)c1O
[23] Cc1ccc(C)c(N(CC(=O)NC2CCCC2)C(=O)CCC(=O)Nc2cc(C)on2)c1
[24] COc1cccc(NC(=O)CCCn2nc(C)c3c(C)n(-c4ccccc4)nc3c2=O)c1
[25] CCN(CC1CCCN(CCc2cccc(OC)c2)C1)C(=O)C=C(C)C (centres undefined)
[26] CCn1c(CNC(C)=O)nnc1SCC(=O)c1ccc(Br)cc1
[27] COc1cc(Cl)ccc1OCc1cc(C(=O)N2CCCCC2c2cccnc2)no1 (centres undefined)
[28] C=C(C)CN(CC)C(=O)COc1ccc(S(=O)(=O)Nc2ccc(OC)cc2)cc1
[29] COc1ccc2oc(=O)cc(CN3CCN(Cc4ccc(OC)c(OC)c4OC)CC3)c2c1
[30] O=C(NCc1cccc(Cl)c1)c1cc(COc2ccc3ncccc3c2)on1

screen / no.,21,22,23,24,25,26,27,28,29,30
ClpP mod,-6.8%,-6.5%,.,-2.0%,0.5%,-4.0%,0.6%,0.2%,-11.3%,.
gsp ag,.,-4.0%,7.5%[15.4 µM],?,2.0%,-6.1%,?,-54.3%[inhibitor],-80.9%[inhibitor],-2.8%[15.4 µM]
gsp antagonist,-6.8%,13.3%,-1.3%,-13.8%,6.3%,17.1%,9.2%,-30.2%,-1.4%,35.5µM*
D2 agonist,2.1,0.6,-0.5,0.1,-3.2,-0.2,-5.9,-5.1,-4.6,-1.2
Menin-MLL FL inh,.,.,.,.,2.5,-3.5,-10.9,-2.6,16.3,5.0
PINK1 expr mod,5.3%,-0.2%,0.6%,2.2%,1.6%,0.5%[38.3 µM],2.4%,-3.6%,-1.5%,-1.5%
Sfp PPTase inh,.,.,16.3%,5.3%,29.0%,?,1.3%,-5.9%,0.7%,-4.0%

Bioassay records deposited in PubChem BioAssay by National Center for Advancing Translational Sciences (NCATS).
